Sa ugtP lethal: compounds lethal to S. aureus RN4220 ugtP deletion mutant | hit rate 0.54% among 330,000 | growth inhibition, % (no concentration beside the values) | OD600 growth, 16 h; some inactives read as strong as hits;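 active means z-score under -3 and OD600 up to 0.15 on both plates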;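 further: plate controls were untreated wells for no effect and antibiotic for full effect; wells of about 80 µL received 100 nL stock; the first replicate is given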
PrP 5UTR inh: inhibition of PrP 5' UTR reporter expression; cell-based PrP 5' UTR mRNA reporter, plate reader; hit rate 0.35% among 340,000; AID 488862; inhibition, % (test concentration not listed);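 active means every replicate at 50% or more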;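 further: 0 = median of the neutral control wells; tested in H4 reporter cells; numbers are from one replicate; inactives centre near -14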
Mtb hypoxia inh: Mtb hypoxia fluorescent reporter inhibition; M. tuberculosis hypoxia-regulated fluorescent reporter, fluorescence; hit rate 0.1% among 300,000; AID 1159583; fluorescence inhibition, % (concentration not given with the values);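 active means 35 to 45% if threefold the growth effect, above 45% if 1.5-fold the growth effect; inactive means the rest, general growth blockers included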;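 further: wells of about 50 µL received 100 nL stock; 0% = vehicle wells and 100% = reference inhibitor wells; whole bacteria with a GFP reporter of the hypoxia response; strong numbers were not always called active; many hits fall short of the cut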
RN4220 kill: S. aureus RN4220 growth inhibition. OD600, 16 h. inhibition, % (concentration not given with the values). hit rate 0.33% among 330,000. AID 1259311;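 active means z-score of -3 or lower and OD600 up to 0.18 on both plates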;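 further: plate controls were untreated cells for no effect and reference antibiotic for full effect; stock transfer was 100 nL into about 80 µL; one replicate is shown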
Autofluor counter: counter-screen for toxin protease inhibitors: compound fluorescence; AID 624483; compound autofluorescence counterscreen, microsphere flow cytometry; hits give high values; fluorescence intensity (test concentration not listed); hit rate 3.1% among 360,000;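 active means at least 3 SD above the mean of all compounds, about 16000 in these data; inconclusive means too few beads counted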;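 further: 100 nL of 1 mM stock went into each well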
BJeLR viability: BJeLR cell viability loss. BJeLR (HRASV12) viability, CellTiter-Glo ATP luminescence, 48 h; reference of the scale not given here. inhibition, % (concentration not given with the values). hit rate 0.17% among 300,000;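 active means replicate mean above 50%; inconclusive means above 50% but judged a plate artefact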;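 further: 50 nL library stock added to about 25 µL; numbers are from one replicate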
Mtb hypoxia inh growth: further read-out of Mtb hypoxia inh, marked with its call; growth inhibition, %; measured here: M. tuberculosis growth (absorbance);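 0% = vehicle and 100% = reference antibiotic; read after six days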
* hit, by the source's call; & = joins results of further samples.

Screening CC1Cc2ccccc2N1C(=O)CSc1nncs1 (configuration not stated) returned Sa ugtP lethal 0.6, PrP 5UTR inh -1.8, Mtb hypoxia inh 7.4, RN4220 kill 1.7, Autofluor counter 7608 and Mtb hypoxia inh growth 9.8.
Screening O=C(CCN1C(=O)C2C3C=CC(C3)C2C1=O)Oc1ccc2ccccc2c1 (configuration not stated) returned Sa ugtP lethal 2.0, PrP 5UTR inh -23.6, Mtb hypoxia inh 10.9, RN4220 kill 1.6, Autofluor counter 2462, BJeLR viability -6.0 and Mtb hypoxia inh growth 4.1.
CC(=O)c1ccc(N2CCN(c3ccc4cc(S(=O)(=O)N5CCC(C)CC5)ccc4n3)CC2)cc1 was read as Sa ugtP lethal -6.0, PrP 5UTR inh -0.3, Mtb hypoxia inh -0.1, RN4220 kill 3.4, Autofluor counter 5711, BJeLR viability 7.5 and Mtb hypoxia inh growth 6.2.
For CC1CC(NC(=O)C2(C)CC2(Cl)Cl)CC(C)(C)C1 (configuration not stated) the results were Sa ugtP lethal -2.3, PrP 5UTR inh -32.3, Mtb hypoxia inh 10.5, RN4220 kill 3.2, Autofluor counter 20800*, BJeLR viability 10.0 and Mtb hypoxia inh growth 10.8.
COCCn1c(=NC(=O)c2ccco2)sc2cc(C(=O)OC)ccc21 was read as Sa ugtP lethal 2.6, PrP 5UTR inh -2.4, Mtb hypoxia inh 8.8, RN4220 kill 1.5, Autofluor counter 2459, BJeLR viability 6.8 and Mtb hypoxia inh growth -2.0.
CC(=O)Nc1ccc(NS(=O)(=O)c2ccc(C)cc2)cc1[N+](=O)[O-] was read as Sa ugtP lethal 2.7, PrP 5UTR inh -9.2, Mtb hypoxia inh 1.7, RN4220 kill 3.4, Autofluor counter 4376, BJeLR viability 4.6 and Mtb hypoxia inh growth 6.5.
For Cc1csc(NC(=O)C2CCN(C(=O)c3ccccc3C)CC2)n1 the results were Sa ugtP lethal 3.0, PrP 5UTR inh -5.4, Mtb hypoxia inh 0.8, RN4220 kill 2.3, Autofluor counter 4158, BJeLR viability -1.4 and Mtb hypoxia inh growth 14.8.
For CC1=CCC2C(=O)N(c3ccc(C)cc3)C(=O)C2C1 (configuration not stated) the results were Sa ugtP lethal 3.1, PrP 5UTR inh -26.6, Mtb hypoxia inh 2.8, RN4220 kill 3.4, Autofluor counter 12085, BJeLR viability 5.9 and Mtb hypoxia inh growth 3.2.
Screening CC(NC(=O)c1cccs1)c1ccc(Br)cc1 (configuration not stated) returned Sa ugtP lethal 4.6, PrP 5UTR inh -22.7, RN4220 kill 0.3 and BJeLR viability 5.9.
CCOC(=O)C(=O)Nc1nnc(COc2ccccc2)s1 was read as Sa ugtP lethal 7.8, PrP 5UTR inh -7.8, Mtb hypoxia inh -1.2, RN4220 kill 3.5, Autofluor counter 4330, BJeLR viability -13.9 and Mtb hypoxia inh growth 3.7.
For N/C(=N\OC(=O)COc1ccc(Br)cc1)c1cccnc1 the results were Sa ugtP lethal -5.1, PrP 5UTR inh -18.3, Mtb hypoxia inh 5.1, RN4220 kill 4.4, Autofluor counter 9806, BJeLR viability 1.0 and Mtb hypoxia inh growth 16.5.
`COc1ccc(C2c3ccc(O)cc3Oc3ncn4nc(-c5cccnc5)nc4c32)cc1OC` (configuration not stated) gave Sa ugtP lethal 17.1, PrP 5UTR inh -5.5, Mtb hypoxia inh 7.9, RN4220 kill -1.3, Autofluor counter 6298, BJeLR viability 13.4 and Mtb hypoxia inh growth -3.6.

Sorted by SMILES length (ascending): some entries from above
For N/C(=N\OC(=O)COc1ccc(Br)cc1)c1cccnc1 the results were Sa ugtP lethal -5.1, PrP 5UTR inh -18.3, Mtb hypoxia inh 5.1, RN4220 kill 4.4, Autofluor counter 9806, BJeLR viability 1.0 and Mtb hypoxia inh growth 16.5.
For Cc1csc(NC(=O)C2CCN(C(=O)c3ccccc3C)CC2)n1 the results were Sa ugtP lethal 3.0, PrP 5UTR inh -5.4, Mtb hypoxia inh 0.8, RN4220 kill 2.3, Autofluor counter 4158, BJeLR viability -1.4 and Mtb hypoxia inh growth 14.8.
COCCn1c(=NC(=O)c2ccco2)sc2cc(C(=O)OC)ccc21 was read as Sa ugtP lethal 2.6, PrP 5UTR inh -2.4, Mtb hypoxia inh 8.8, RN4220 kill 1.5, Autofluor counter 2459, BJeLR viability 6.8 and Mtb hypoxia inh growth -2.0.
CC(=O)c1ccc(N2CCN(c3ccc4cc(S(=O)(=O)N5CCC(C)CC5)ccc4n3)CC2)cc1 was read as Sa ugtP lethal -6.0, PrP 5UTR inh -0.3, Mtb hypoxia inh -0.1, RN4220 kill 3.4, Autofluor counter 5711, BJeLR viability 7.5 and Mtb hypoxia inh growth 6.2.

(next part)
For CCO[C@H]1OC(C(=O)N2CCOCC2)=C[C@@H](c2ccc3c(c2)OCO3)[C@@H]1CCCO the results were PrP 5UTR inh -5.6, Autofluor counter 3799 and BJeLR viability -2.4.
Screening Cc1nn(C)c(=S)[nH]c1=S returned Sa ugtP lethal -9.7, PrP 5UTR inh 4.9, Mtb hypoxia inh 6.2, RN4220 kill 14.5, Autofluor counter 2827 and Mtb hypoxia inh growth 2.0.
For COc1ccc(NC(=O)CSCC(=O)Nc2ccccc2N2CCCC2)cc1 the results were Sa ugtP lethal 8.4, PrP 5UTR inh -41.0, Mtb hypoxia inh 11.7, RN4220 kill 1.7, Autofluor counter 6352, BJeLR viability 14.7 and Mtb hypoxia inh growth -9.2.
Screening CN=C1SC(CC(=O)Nc2ccc(F)cc2F)C(=O)N1/N=C/c1ccc(OC(F)F)c(OC)c1 (configuration not stated) returned PrP 5UTR inh -16.8, Autofluor counter 4798 and BJeLR viability -11.7.
Screening CC(C)CNC(=O)C(=O)NN=C1CCCCCC1 returned Sa ugtP lethal -1.8, PrP 5UTR inh 3.5, Mtb hypoxia inh 0.9, RN4220 kill 2.7, Autofluor counter 2395, BJeLR viability -1.8 and Mtb hypoxia inh growth 2.7.
`c1ccc(C2C3CN(Cc4cccnc4)C(c4ccccc4)C34CC2(c2ccccc2)C4)cc1` (configuration not stated) gave Sa ugtP lethal 0.6, Mtb hypoxia inh 12.9, RN4220 kill 6.4 and Mtb hypoxia inh growth 10.3.
COC(=O)NN=Cc1cn(CCCOc2ccccc2)c2ccccc12 was read as Sa ugtP lethal -5.2, Mtb hypoxia inh 10.6, RN4220 kill -1.2 and Mtb hypoxia inh growth 14.7.
For O=C(C[C@@H]1C/C=C\CC[C@H](Cc2ccc(F)cc2)C(=O)OC[C@@H]2CCCN2C1=O)N[C@H](CO)Cc1ccccc1 the results were Sa ugtP lethal -12.1, PrP 5UTR inh -21.5, Mtb hypoxia inh 4.5, RN4220 kill 2.3, Autofluor counter 3558 and Mtb hypoxia inh growth 5.7.
For COc1ccc(/C=N/n2c(C)nc3sc(C)c(C)c3c2=O)cc1OC the results were PrP 5UTR inh -17.4, Autofluor counter 4006 and BJeLR viability -16.3.
Screening CN1CC(C(=O)c2ccc(F)cc2)C(c2ccc(F)cc2)C1 (configuration not stated) returned Sa ugtP lethal 1.5, PrP 5UTR inh -26.1, Mtb hypoxia inh 3.5, RN4220 kill -1.0, Autofluor counter 3085, BJeLR viability -6.4 and Mtb hypoxia inh growth 0.8.
CCc1cc(C(=O)Nc2nc(-c3ccccn3)cs2)sc1C was read as Sa ugtP lethal 2.1, PrP 5UTR inh -4.2, Mtb hypoxia inh -4.6, RN4220 kill 19.8, Autofluor counter 7237 and Mtb hypoxia inh growth 7.6.
CC(=O)Oc1ccc2occ(C=Nc3cc(=O)[nH]c(=S)[nH]3)c(=O)c2c1 was read as Sa ugtP lethal 10.5, Mtb hypoxia inh 12.1, RN4220 kill 2.3 and Mtb hypoxia inh growth 4.3.
Screening CC1CN(C(C)CO)C(=O)c2cccc(NS(=O)(=O)c3ccccc3)c2OC1CN(C)S(=O)(=O)c1ccccc1 (configuration not stated) returned Sa ugtP lethal -3.9, Mtb hypoxia inh 4.1, RN4220 kill 4.2 and Mtb hypoxia inh growth 9.0.
For CCOc1ccccc1NC(=O)c1ccc(S(=O)(=O)N(C)C)cc1 the results were Sa ugtP lethal 0.0, PrP 5UTR inh -6.0, Mtb hypoxia inh 5.0, RN4220 kill 1.1, Autofluor counter inconclusive, BJeLR viability 3.2 and Mtb hypoxia inh growth 0.0.
For O=S(=O)(c1c(Cl)cc(Br)cc1Cl)N1CCN(C(=S)NC2CC2)CC1 the results were Sa ugtP lethal 3.1, PrP 5UTR inh -1.0, Mtb hypoxia inh -2.9, RN4220 kill 6.9, Autofluor counter 2839 and Mtb hypoxia inh growth 1.1.
Screening COc1ccc(CCNC(=O)c2ccc(Cl)cc2)cc1OC returned Sa ugtP lethal 8.6, PrP 5UTR inh 11.9, Mtb hypoxia inh -8.4, RN4220 kill 4.8, Autofluor counter 3300, BJeLR viability 23.2 and Mtb hypoxia inh growth -1.7.
Screening N/C(Cc1ccc([N+](=O)[O-])cc1)=N\OC(=O)c1ccccc1F returned PrP 5UTR inh -41.5, Autofluor counter 3788 and BJeLR viability -2.6.
For COc1cc(NC(=O)CN2CCN(Cc3ccc4c(c3)OCO4)CC2)cc(OC)c1 the results were Sa ugtP lethal -2.2, PrP 5UTR inh -4.1, Mtb hypoxia inh 2.7, RN4220 kill 1.1, Autofluor counter 3146, BJeLR viability -1.5 and Mtb hypoxia inh growth 2.5.
Cc1ccc(CNC(=O)c2ccc(N3CCC4(CC3)CC(c3cccc(Br)c3)=NO4)c([N+](=O)[O-])c2)cc1 was read as Sa ugtP lethal -4.2, PrP 5UTR inh -12.2, Mtb hypoxia inh -1.5, RN4220 kill -2.6, Autofluor counter 2800, BJeLR viability 8.5 and Mtb hypoxia inh growth 7.2.
For O=C(O)CC(NC(=O)C12CC3CC(CC(C3)C1)C2)c1ccc2c(c1)OCO2 (configuration not stated) the results were Sa ugtP lethal 8.7, PrP 5UTR inh -4.5, Mtb hypoxia inh 8.4, RN4220 kill 3.0, Autofluor counter 5143, BJeLR viability -2.8 and Mtb hypoxia inh growth 1.1.
Screening Cc1ccc(/C=C2\SC(=S)N(C3CCS(=O)(=O)C3)C2=O)o1 (configuration not stated) returned Sa ugtP lethal 5.4, PrP 5UTR inh -0.5, Mtb hypoxia inh 8.3, RN4220 kill 2.2, Autofluor counter 2152, BJeLR viability -4.4 and Mtb hypoxia inh growth 10.9.
CCC1Nc2ncnc(N3CCN(c4ccccc4)CC3)c2N(Cc2ccccc2)C1=O (configuration not stated) was read as Sa ugtP lethal -9.6, PrP 5UTR inh -13.2, Mtb hypoxia inh 1.6, RN4220 kill 1.9, Autofluor counter 3011&6343 and Mtb hypoxia inh growth 4.5.
`CCCCCCCn1c(C)nnc1-c1cnn(C)c1N` gave Sa ugtP lethal 4.6, PrP 5UTR inh -24.2, Mtb hypoxia inh -8.5, RN4220 kill 10.6, Autofluor counter 4173, BJeLR viability 0.4 and Mtb hypoxia inh growth -1.2.
Screening CCc1nnc(NS(=O)(=O)c2ccc(NCc3cc(Cl)ccc3O)cc2)s1 returned Sa ugtP lethal -4.9, PrP 5UTR inh 12.6, Mtb hypoxia inh -17.2, RN4220 kill -2.4, Autofluor counter 5587, BJeLR viability -3.2 and Mtb hypoxia inh growth -2.3.
For COc1nc(N/N=C/c2ccc(-c3ccccc3[N+](=O)[O-])o2)nc(N2CCOCC2)n1 the results were PrP 5UTR inh -16.8, Autofluor counter 2416 and BJeLR viability -6.8.
Screening CC(C)(C)S(=O)N1Cc2cc(=O)n(Cc3ccccc3)cc2[C@H]1CCO (some centres not stated) returned Sa ugtP lethal 0.1, PrP 5UTR inh -16.5, Mtb hypoxia inh -3.6, RN4220 kill 0.8, Autofluor counter 3639 and Mtb hypoxia inh growth 6.6.
`CCc1ccc(C=Nn2c(C3CCCCC3)n[nH]c2=S)cc1` gave Sa ugtP lethal -2.8, Mtb hypoxia inh -1.7, RN4220 kill -3.5 and Mtb hypoxia inh growth 8.6.
Screening OCC1(Cc2cccc(Cl)c2)CCCN(Cc2cnn(-c3ccccc3)c2)C1 (configuration not stated) returned Sa ugtP lethal -5.0, PrP 5UTR inh -21.6, Mtb hypoxia inh 8.4, RN4220 kill -0.6, Autofluor counter 5447, BJeLR viability -2.9 and Mtb hypoxia inh growth -1.2.
O=C(OCc1ccc([N+](=O)[O-])cc1)c1cc(=O)c2ccccc2o1 was read as Sa ugtP lethal -3.5, PrP 5UTR inh -6.5, Mtb hypoxia inh 0.3, RN4220 kill -2.4, Autofluor counter 4308, BJeLR viability -4.2 and Mtb hypoxia inh growth 1.1.
Cc1cc(C)cc(-n2c(C)cc(/C=N\NC(=O)COc3cccc4cccnc34)c2C)c1 was read as PrP 5UTR inh -9.2, Autofluor counter 2895 and BJeLR viability -3.8.
